MT1-MMP act inh = inhibitors of human MT1-MMP activation; P50281; HT1080 RFP-PRO-GFP cells, GFP/RFP ratio fluorescence, overnight; percent of plate control window, DMSO zero; GFP/RFP ratio change, % at 20 µM; actives 0.061% (n = 360,000);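 active means GFP/RFP ratio change of at least 30% with cell ATP level not reduced by more than half and red fluorescence within 50% of control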; further: strong numbers were not always called active
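Compound: 20 µM single dose, 1% DMSO / System: HT1080 RFP-PRO-GFP cells / Controls: DMSO and RFP-L50D-GFP cell wells / Read-out basis: GFP/RFP fluorescence ratio / Schedule: overnight compound exposure at 37 °C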
CSC inhib = blocks cancer stem cells. actives 1.1% (n = 300,000). cancer stem cell-like cells viability, luminescence. AID 2717. inhibition, % at 7.5 µM;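 active means mean at 75% or more and at least half the replicates too; inconclusive means mean and replicates disagree; tested in HMLE shEcad cells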;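 further: 0% = median of negative and 100% = median of positive control wells; the first replicate is given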
eIF4H FP inh = inhibitors of RNA binding by human eIF4H; inhibition, % at 35 µM; actives 0.94% (n = 290,000); Q15056; eIF4H fluorescence polarization binding assay;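 active means 50% or more with normal probe brightness, or confirmed in later tests; inconclusive means above 50% with abnormal brightness, or retests that disagree; inactive means below 50% or failed in later tests; about a fifth of its hits are not listed in these tables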;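 further: calls also rest on retests at 20 µM and on dose response follow-up; 0% = protein and probe with vehicle and 100% = probe without protein; strong numbers were not always called active; many hits fall short of the cut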
Rce1 inhib = blocks yeast Ras-converting enzyme; calls only; AID 2563; yeast membranes, quenched prenylated peptide cleavage fluorescence; actives 0.27% (n = 290,000);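 active means fall in fluorescence gain of 50% or more versus controls, with final raw signal at or below 3038400; inconclusive means same 50% fall but final raw signal above 3038400; inactive means fall in fluorescence gain under 50%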;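 further: plate controls were neutral control wells for no effect and wells lacking membranes for full effect; tested at 10 µM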
Target sequence (Q03530 whole entry, looked up): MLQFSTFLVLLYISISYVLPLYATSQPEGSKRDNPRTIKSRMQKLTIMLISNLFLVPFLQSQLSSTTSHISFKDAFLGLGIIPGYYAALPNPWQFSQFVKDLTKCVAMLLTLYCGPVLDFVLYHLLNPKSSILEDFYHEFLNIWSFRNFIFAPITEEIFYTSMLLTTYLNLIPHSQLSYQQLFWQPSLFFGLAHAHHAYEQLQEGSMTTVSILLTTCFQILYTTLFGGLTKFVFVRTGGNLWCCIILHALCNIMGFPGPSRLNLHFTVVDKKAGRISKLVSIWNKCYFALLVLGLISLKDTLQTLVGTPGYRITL
PABP polyA inh = PABP-poly(A) binding inhibition | inhibition, % at 35 µM | PABP-poly(A) RNA binding, fluorescence polarization | actives 1% (n = 290,000);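 active means 50% or more with normal probe brightness, or confirmed in later tests; inconclusive means above 50% with abnormal brightness, or retests that disagree; inactive means below 50% or failed in later tests; about a fifth of its hits are not listed in these tables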;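 further: calls also rest on retests at 20 µM and on dose response follow-up; controls were probe without protein and protein plus probe with vehicle; some compounds called inactive have numbers as strong as hits; many hits fall short of the cut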
Target sequence (P11940 whole entry, looked up): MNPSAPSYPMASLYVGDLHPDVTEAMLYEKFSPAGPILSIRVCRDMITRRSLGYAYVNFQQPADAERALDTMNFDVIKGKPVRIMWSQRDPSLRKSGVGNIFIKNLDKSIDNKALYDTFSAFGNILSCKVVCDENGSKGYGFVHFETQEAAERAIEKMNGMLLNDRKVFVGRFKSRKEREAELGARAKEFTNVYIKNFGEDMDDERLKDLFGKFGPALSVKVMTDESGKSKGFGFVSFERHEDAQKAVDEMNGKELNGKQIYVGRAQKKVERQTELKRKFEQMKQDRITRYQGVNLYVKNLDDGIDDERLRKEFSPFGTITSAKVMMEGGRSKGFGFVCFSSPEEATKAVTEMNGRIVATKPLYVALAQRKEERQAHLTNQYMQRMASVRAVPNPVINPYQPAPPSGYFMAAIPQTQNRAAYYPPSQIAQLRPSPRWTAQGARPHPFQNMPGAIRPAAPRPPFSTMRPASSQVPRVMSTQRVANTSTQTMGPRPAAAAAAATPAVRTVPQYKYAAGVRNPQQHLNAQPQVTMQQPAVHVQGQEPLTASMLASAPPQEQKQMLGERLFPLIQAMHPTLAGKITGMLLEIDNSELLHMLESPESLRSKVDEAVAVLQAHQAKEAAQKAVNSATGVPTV
Env fusion inh = blocks HIV Env-driven cell-cell fusion | HeLa-JRFL Env/CEM21 cell fusion, luciferase | inhibition, % at 12.3 µM | actives 1.1% (n = 360,000) | AID 651610;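 active means mean replicate inhibition score of at least 50 and every replicate individually at or above 50; inconclusive means only one of the two criteria met; inactive means mean below 50 and not all replicates reaching 50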;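 further: 0% = plate neutral controls and 100% = maraviroc near 300 nM; one replicate is shown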
UUG fidelity = modulators of start codon recognition fidelity in yeast | S. cerevisiae UUG-firefly luciferase reporter, luminescence/redox ratio | activity score, % at 18.7 µM | actives 0.13% (n = 350,000);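 active means replicate mean at a twofold rise or more, about +100% in these data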;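 further: firefly luciferase made from a UUG start codon reports start codon fidelity; reporter light over untreated wells divided by growth signal over untreated wells; some hits fall short of that in this replicate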
eIF4H FP inh retest = second read-out of eIF4H FP inh, no call of its own (marks repeat the call); inhibition, %; compound at 20 µM; confirmation average;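 mean of two retest wells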
PABP polyA inh retest = also measured in PABP polyA inh; calls as there; inhibition, %; compound at 20 µM; confirmation repeats;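 mean of two retest wells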
MT1-MMP act inh RFP = second read-out of MT1-MMP act inh, no call of its own (marks repeat the call); RFP signal change, %; measured here: RFP expression control read;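 0 = vehicle wells; hits needed this value within 50% of zero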
Active calls of the source: *; i = inactive; u = inconclusive; x = no result given; & = joins results of further samples.

SMILES	MT1-MMP act inh	MT1-MMP act inh RFP	CSC inhib	eIF4H FP inh	Rce1 inhib	PABP polyA inh	Env fusion inh	UUG fidelity	others
O=C(Cn1cc(/C=N/NC(=O)c2ccccc2Br)c2ccccc21)Nc1ccc(F)cc1	4	-6	-5	-12	i	-2	30	x
O=C(COc1ccc2ccccc2c1Br)NCc1ccccn1	-3	-1	-12	-1	i	-6	-1	x
CC(NC(=O)C1CCCN(C(=O)N(C)C)C1)c1ccccc1 (stereo not drawn)	4	4	0	0	i	-5	-72	-8
Cc1csc(NC(=O)c2cccc([N+](=O)[O-])c2C(=O)O)n1	2	1	0	5	i	-2	2	-18
CCOc1ccc(NC(=O)CNc2ccc(C)cc2Cl)cc1	4	1	10	-6	i	-1	-19	5
N#CC1(NC(=O)COC(=O)CCCN=C2NS(=O)(=O)c3ccccc32)CCCCC1	-5	-1	-15	-5	i	6	6	-17
CCc1ccc(-c2nc(CN3CCCC(C(=O)NCCc4ccc(OC)c(OC)c4)C3)c(C)o2)cc1 (stereo not drawn)	-3	-15	-2	0	i	0	u	15
O=C(c1cccc(O)c1)N1CCN(C(=O)C2CC2)CC1	-4	4	-9	x	x	x	x	-30
CN(C)c1ccc(C(=O)n2nnc3ccccc32)cc1	13	-1	9	3	i	-3	-13	-18
COc1ccccc1CNC(=O)C1CCN(S(C)(=O)=O)CC1	1	2	1	-1	i	-7	-69	-14
COC(=O)CCCCC1SCC(NC(=O)OC)C1NC(=O)OC (stereo not drawn)	-6	3	-1	-14	i	-3	x	-11
CCC(C)(C(=O)NC1CCCC1)N(C)C(=O)Cc1c[nH]c2ccccc12 (stereo not drawn)	-1	0	-9	-3	i	1	8	-7
O=C(NCc1ccncc1)NC1CCCCC1	-1	1	7	-12	i	-4	7	x
O=C(c1cc2ccccc2o1)N(Cc1ccco1)Cc1cccs1	-5	-2	-22	x	i	x	1	-26
NC(N)=NNC(=O)c1ccccc1Cl	-2	-1	-14	0	i	-2	x	x
Cc1cccc(NC(=S)NCc2ccncc2)c1C	0	5	5	-14	i	2	-11	x
O=C1c2ccccc2NC(c2ccccc2Br)N1CCCN1CCOCC1 (stereo not drawn)	-14	-1	-6	-9	i	-1	17	0
CC1C(=O)c2ccccc2CC1C(=O)O (stereo not drawn)	2	0	x	x	x	x	6	-7
Cc1ccc(S(=O)(=O)N2CCN(C(=O)C(C)Cn3cncn3)CC2)cc1 (stereo not drawn)	1	1	-14	1	x	14	-101	-1
COc1ccccc1Nc1nc(N2CCCC2)nc(N2CCOCC2)n1	2	-3	-4	x	i	x	37	5
COC(=O)CSc1nc(C(C)C)nc2ccccc12	1	-3	-3	7	i	-7	12	-8
O=C(Cn1c(-c2ccc(Cl)cc2)noc1=O)N1CCN(c2ccccc2F)CC1	6	-1	-6	5	i	4	-103	0
CC(C)(C)C(=O)Nc1ccc(N2CCN(S(C)(=O)=O)CC2)cc1	7	8	-5	6	i	-1	7	-14
CCC(C)(C)NC(=O)C(c1cccn1C)N(C(=O)Cn1nnc2ccccc21)c1ccc(F)cc1 (stereo not drawn)	6	5	-3	-5	i	-5	x	-6
COc1cc(/C=N/OCC(=O)Nc2cc(C)on2)ccc1OCc1ccccc1	2	-1	4	-7	i	9	x	-7
O=C(O)CCCC(=O)NCCCCc1ccccc1	3	6	-6	-7	i	5	5	-25
COc1ccccc1-n1c(SCC(=O)N2CCCCC2)nnc1-c1ccccc1O	1	4	-16	0	i	5	x	-5
CC(C(=O)NCCS(=O)(=O)c1ccc(Cl)cc1)S(=O)(=O)c1ccccc1 (stereo not drawn)	0	3	1	0	i	-26	-7	x
CN(C(=O)c1ccc2c(=O)n3c(nc2c1)CCCCC3)c1ccccc1	3	4	2	-8	i	1	x	-10
CC(=O)Nc1cc(-c2cccc(C(=O)N(C)C)c2)cn2c(-c3cccc(C(=O)N(C)C)c3)cnc12	-4	9	x	x	x	x	14	-8
COc1ccc2c(COC(=O)CNC(=O)C34CC5CC(CC(C5)C3)C4)cc(=O)oc2c1	5	5	-10	22	i	3	x	6
COc1ccc(CNC(=O)CN(C(=O)c2snc(C(N)=O)c2N)c2ccc(OC)c(OC)c2)cc1	3	2	-4	-2	i	3	-6	-12
CCOC(=O)CNC(=O)c1cnn2cccnc12	-10	4	-12	3	i	1	x	-14
Cc1cc(OCC(=O)NCc2nc(-c3ccccc3)no2)c(C)cc1Br	-1	2	10	-13	i	8	x	0
CC[C@H](C)[C@H](NC(N)=O)C(=O)Nc1ccccc1F	0	2	-8	0	i	-4	-2	-7
CCc1nc2ccccc2c(C(=O)OCC(=O)N(CC(C)C)c2c(N)n(Cc3ccccc3)c(=O)[nH]c2=O)c1C	-28	-22	x	x	x	x	2	-1
COc1cc(/C=N/n2c(COc3ccccc3)n[nH]c2=S)cc(OC)c1OC(C)=O	1	-6	-7	6	i	3	10	-7
CC(=O)NCC(=O)N(c1ccccc1)C1(C(=O)NC2CCCCC2)CCCCC1	-1	-1	1	-3	i	-9	-131	-6
CC(C)C[C@H]1CNC(=S)N1CC1CCN(CCCC2CCCCC2)CC1	-1	-4	x	x	x	x	24	-24
COc1ccc(N2CCN(C(=O)c3ccc(Cn4nc(C)c([N+](=O)[O-])c4C)o3)CC2)cc1	-1	0	x	0	i	-6	7	-9
COc1cccc(Cn2nnc3c(=O)[nH]c(C4CCCN(C(=O)c5ccccc5Cl)C4)nc32)c1 (stereo not drawn)	8	-2	-17	-7	i	0	x	14
CC(=O)Nc1ccc(C(=O)Nc2nc(-c3cc(C)n(Cc4ccccc4)c3C)cs2)cc1	-2	1	-7	35	i	5	20	-1
COc1ccc(C(=O)COC(=O)COc2cccc3c2OC(C)(C)C3)c(OC)c1	2	3	-2	x	i	x	-6	-6
O=C1CC(c2ccccc2)n2nc(NS(=O)(=O)c3ccccc3)nc2N1 (stereo not drawn)	3	3	-7	0	i	5	x	-24
O=C(CCNC(=O)c1ccccc1Cl)Nc1cccc(S(=O)(=O)N2CCOCC2)c1	2	3	x	x	x	x	-6	-11

2 neighbouring records out of the list so far, quoted:
SMILES	MT1-MMP act inh	MT1-MMP act inh RFP	CSC inhib	eIF4H FP inh	Rce1 inhib	PABP polyA inh	Env fusion inh	UUG fidelity	others
COC(=O)CSc1nc(C(C)C)nc2ccccc12	1	-3	-3	7	i	-7	12	-8
O=C(Cn1c(-c2ccc(Cl)cc2)noc1=O)N1CCN(c2ccccc2F)CC1	6	-1	-6	5	i	4	-103	0

Other records follow:
SMILES	MT1-MMP act inh	MT1-MMP act inh RFP	CSC inhib	eIF4H FP inh	Rce1 inhib	PABP polyA inh	Env fusion inh	UUG fidelity	others
COCCn1c(N)c(Sc2ccccc2)c(=O)[nH]c1=O	0	5	-6	2	i	4	6	-17
C[C@@H]1CN([C@H](C)CO)C(=O)c2cc(Br)cnc2O[C@H]1CN(C)C(=O)Cc1ccccc1	8	7	x	x	x	x	19	18&-11
Cc1sc(N)c(C#N)c1C	-1	9	-4	u	i	45	-13	2
CCN(CC)S(=O)(=O)c1cccc(-n2c(O)c(C=Nc3ccccc3C(=O)O)c3ccccc3c2=O)c1	0	2	35	2	i	20	14	-11
O=C(Nc1ccc2c(c1)OCCO2)c1cnc2ccccn2c1=O	-2	2	0	x	i	x	x	-16
CCCn1c(=O)c2c(C(F)(F)F)cc(-c3ccco3)nc2n(CCC)c1=O	-3	2	23	4	i	-1	x	-8
O=C(O)CC1(CC(=O)Nc2cccc(C(=O)O)c2)CCCC1	3	6	-18	-5	i	-2	-1	-23
CCc1ccc(NC(=O)c2ccc3c(c2)CCN3S(C)(=O)=O)cc1	8	-2	x	x	x	x	9	-14
COC(=O)c1ccc(NC(=O)c2ccc(NC(=O)C3CCCO3)cc2)cc1 (stereo not drawn)	4	-6	7	-9	i	4	-14	x
N#CCc1c(C#N)c(N)nc(N2CCCC2)c1C#N	4	2	4	x	i	x	11	-7
COc1ccc(-c2noc(-c3ccccc3Cl)n2)cc1OC	5	0	-3	-6	i	4	x	-10
COC(=O)CCSc1nccn1Cc1ccccc1	5	5	-17	-9	i	-10	-11	-21
CC(=O)NC(c1ccccc1)c1nc(-c2ccc(C)c(C)c2)cs1 (stereo not drawn)	-1	0	x	x	x	x	-8	-10
Cc1ccc(S(=O)(=O)N2CCCC2CNC(=O)C(=O)NC2CCCC2)cc1 (stereo not drawn)	0	-3	x	x	i	x	x	7
O=C(OCc1cncs1)c1ccccc1Cl	1	4	-6	-6	i	1	11	-1
Cc1ccc(Cn2cccc(NC(=O)CCC3CCCC3)c2=O)cc1	-2	-7	7	-2	i	-2	-2	-19
Cc1nn(CC(=O)NCCC2=CCCCC2)c(C)c1[N+](=O)[O-]	-1	4	-11	x	i	x	-2	12
CC(Oc1ccccc1Cl)C(=O)N(Cc1cccs1)C1CCS(=O)(=O)C1 (stereo not drawn)	2	-1	x	-4	i	10	x	12
Cc1sc(NC(=O)COc2ccccc2)c(C#N)c1C	-6	0	-25	-7	i	7	4	x
CC(C(=O)OCC(=O)c1ccc(F)cc1)N1C(=O)C2C3C=CC(C3)C2C1=O (stereo not drawn)	0	5	2	-8	i	4	-1	-22
O=C(N/N=C/c1cccc([N+](=O)[O-])c1)c1ccc2nc[nH]c2c1	0	1	-14	2	i	-1	-76	-12
O=S(=O)(Nc1ccc(N2CCCCC2)cc1)c1cccc2cccnc12	2	-3	0	4	i	8	x	x
C/C(=N\NC(=O)c1c(Br)c(C)nn1C)c1cccc(NC(=O)C2CCC2)c1	0	-2	-6	-8	i	-12	x	4
CCCOc1ccc(N2C(=O)CC(SC(=NC)Nc3ccc(F)cc3)C2=O)cc1 (stereo not drawn)	-1	4	-2	2	i	-4	-75	-13
CSCCC(NC(=O)C1CCC(C)CC1)C(=O)NCCN1CCOCC1 (stereo not drawn)	0	-6	-7	-1	i	-6	-44	-1
CCCNC(=O)c1csc2c1CCCCC2	-5	-3	-12	-1	i	6	-84	x
Cc1occc1C(=O)N/N=C/c1sc(N2CCOCC2)nc1-c1ccccc1	1	4	x	-2	i	-5	-5	x
Cc1ccccc1OCC(=O)NNC(=O)Nc1ccccc1	-3	0	x	-3	i	-10	-2	x
Cc1ccc2cc(CN(CC(C)C)S(=O)(=O)c3cccc4nonc34)c(=O)[nH]c2c1	-5	1	0	-13	i	-2	35	3
CCN1C[C@@H]2[C@@H]3C(=O)N(Cc4ccccc4)C(=O)[C@@H]3[C@](CC)(C(=O)OC)N2C1=NC1CCCCC1	-2	2	x	x	x	x	7	-8
CC(C)N(C)c1ncnc2c1ncn2[C@H]1CN(Cc2ccc(Cl)cc2)C[C@@H](CO)O1	4	3	x	x	x	x	-12	9
Cc1ccc(NC(=O)COC(=O)c2ccccc2Cl)cc1S(=O)(=O)N(C)C	1	4	4	-8	i	-7	-8	x
COc1ccc(-c2ocnc2C(=O)Nc2ccc3c(c2)CCC3)cc1	-2	-2	-12	10	i	5	-11	-10
CCOC(=O)C(N)CSC1CC(=O)N(CCc2ccccc2)C1=O (stereo not drawn)	4	1	6	-8	i	4	8	-3
CCCCCOc1ccc(/C(C)=N/NC2=NCCN2)cc1	6	-2	1	-9	i	0	-1	-10
N=c1nc(SCCC(=O)O)ss1	-3	1	27	-14	i	-9	x	-16
CN1CCc2ccccc2CC1=O	5	8	x	-4	i	118	x	-14	eIF4H FP inh retest=-1;PABP polyA inh retest=2

An excerpt, so the mix of outcomes need not match the whole.
